Compound activity as filed in PubChem.
PKD1 kinase inh: inhibitors of human PKD1 kinase, biochemical, fluorescence polarization. Serine/threonine-protein kinase D1 (Homo sapiens), Q15139. PKD1 kinase fluorescence polarization assay. inhibition, %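 (about 10 µM by stock and volumes)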. 200,000 tested, 0.056% active. AID 797, 2007;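 active = inhibition of 50% or more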;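 also: controls were vehicle for no effect and a reference inhibitor for full effect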
Target sequence (Q15139 whole entry, looked up): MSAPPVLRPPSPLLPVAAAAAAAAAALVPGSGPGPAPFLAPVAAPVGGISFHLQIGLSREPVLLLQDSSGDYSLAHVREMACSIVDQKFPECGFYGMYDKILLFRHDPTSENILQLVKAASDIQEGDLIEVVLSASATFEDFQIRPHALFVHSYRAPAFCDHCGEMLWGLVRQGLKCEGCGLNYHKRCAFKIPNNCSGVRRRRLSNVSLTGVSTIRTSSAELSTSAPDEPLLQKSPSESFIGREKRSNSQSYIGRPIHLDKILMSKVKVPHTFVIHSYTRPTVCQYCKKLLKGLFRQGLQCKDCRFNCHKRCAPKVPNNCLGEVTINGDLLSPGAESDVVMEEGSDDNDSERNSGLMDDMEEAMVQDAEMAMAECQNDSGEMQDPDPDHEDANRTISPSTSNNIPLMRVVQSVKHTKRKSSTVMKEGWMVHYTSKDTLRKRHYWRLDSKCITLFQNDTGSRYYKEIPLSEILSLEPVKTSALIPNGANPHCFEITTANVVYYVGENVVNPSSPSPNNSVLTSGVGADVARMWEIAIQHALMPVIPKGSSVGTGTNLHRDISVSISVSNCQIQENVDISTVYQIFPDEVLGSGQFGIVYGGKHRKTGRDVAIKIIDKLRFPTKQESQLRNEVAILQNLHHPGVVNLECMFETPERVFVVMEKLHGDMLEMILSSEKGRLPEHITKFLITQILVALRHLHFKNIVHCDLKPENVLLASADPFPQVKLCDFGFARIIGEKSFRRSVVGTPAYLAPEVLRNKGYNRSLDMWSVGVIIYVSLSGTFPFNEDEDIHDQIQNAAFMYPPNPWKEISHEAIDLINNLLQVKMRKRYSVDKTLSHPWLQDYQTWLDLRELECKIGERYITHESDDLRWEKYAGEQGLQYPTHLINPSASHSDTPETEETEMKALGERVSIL
HSV augment: enhancers of HSV replication in host cells, fold increase, host cell viability; HSV replication augmentation in cells; maximum fold increase; 220,000 tested, 0.005% active; AID 1956, 2009;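 active = peak rise of 1.5-fold or more in the series; tested in PC3 cells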;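 also: first round at 10 µM; read as green reporter fluorescence; hits show the peak of a series up to 25 µM; 1 = signal of infected wells without compound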
GALR2 ag: GALR2 receptor agonists, primary screen, cell-based. activation, %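 (tested at 5 µM)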. Galanin receptor type 2 (Homo sapiens), O43603. GALR2-expressing cells, agonist activation read-out. AID 803, 2007. 140,000 tested, 0.48% active;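 active = above mean plus 3 SD of all compounds, about 5% in these data, not always enough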;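 also: 0% = vehicle buffer wells and 100% = reference agonist at full effect; tested in CHO reporter cells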
Insulin prom inh: inhibitors of insulin promoter-driven GFP, primary screen, imaging, TRM-6 cells (human fetal islet line), eGFP reporter, cell count | inhibition, % at 2 µM | 130,000 tested, 0.9% active | AID 1273, 2008 | reporter expression induced with tamoxifen;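 active = inhibition above the mean plus 3 SD, with well images judged a real hit on visual review, cut at about 60% in these data, passing the limit was not always enough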
RGS16-Gao HTS: modulators of RGS16 binding to Galphao, primary screen, biochemical, human proteins, multiplexed bead flow cytometry. binding response (% of control), % at 10 µM. AID 1441, 2008. 220,000 tested, 0.38% active. bead-based flow cytometry RGS16-Galphao binding, fluorescence; actives lie on both sides. Regulator of G-protein signaling 16 (Homo sapiens) + Guanine nucleotide-binding protein …;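 active = below 25% or above 175%, edge rows of some plates excepted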;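 also: Galphao activated by GDP with aluminum fluoride before binding; 100% = wells without compound and 0% = beads without RGS; some results beyond the cut were filed as inactive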
Insulin prom inh cell count: recorded beside Insulin prom inh, whose call it bears; normalized cell count, %; measured here: cell count, toxicity; reference of the scale not given here;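 cells exposed to compound for 48 h; stained nuclei by imaging scaled within each plate; lower means fewer cells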
HSV augment primary fold: second read-out of HSV augment, no call of its own (marks repeat the call); fold increase; compound at 10 µM; measured here: primary screen fold increase 10 uM; tested in PC3 cells;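 GFP signal in the first replicate; 1 = infected wells without compound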
Active calls of the source: *; i = inactive; / = not tested or not shown. Compounds were not picked by outcome; any-hit rate near 1.1%.

| canonical_smiles | PKD1 kinase inh | HSV augment primary fold | HSV augment | Insulin prom inh | RGS16-Gao HTS | GALR2 ag | Insulin prom inh cell count |
| --- | --- | --- | --- | --- | --- | --- | --- |
| O=[N+]([O-])c1ccccc1CN1CCN(Cc2ccccn2)CC1 | -8 | 0.94 | i | / | 102 | / | / |
| CCOC(=O)Nc1sc(C(=O)N(C)C)c(C)c1C(=O)OCC | -8 | 0.96 | i | 23 | 104 | -0.4 | 153 |
| O=C(CN1C(=O)NC2(CCc3ccccc3C2)C1=O)Nc1ccc(Cl)cc1F (stereo unspecified) | -5 | 0.87 | i | -3 | 102 | -1.8 | 109 |
| COc1ccc(C(C)=O)cc1COc1ccc(F)cc1 | 3 | 0.95 | i | / | 99 | / | / |
| Cc1csc(-c2cccnc2)n1 | -8 | 0.77 | i | -14 | 90 | -1.4 | 113 |
| O=C(CSc1nc2ccccc2o1)c1ccc2c(c1)OCCO2 | -13 | 0.81 | i | -49 | 102 | -1.3 | 43 |
| CC(C)NS(=O)(=O)c1ccc(OCC(=O)NCc2cccnc2)cc1 | -5 | 0.93 | i | -21 | 95 | -1.8 | 128 |
| CC(C)CCNC(=O)c1csc2c1CCCCC2 | -2 | 1.1 | i | -11 | 100 | / | 80 |
| CNC(=O)COc1ccc(Nc2nnc(C)c3ccccc23)cc1 | / | 0.94 | i | / | 98 | / | / |
| CC(=O)N1CCN(CCN2C(C)=CC(=C(C#N)C#N)C=C2C)CC1 | 6 | 0.9 | i | 7 | 99 | / | 81 |
| CC1CCCN(C(=S)SCC(=O)O)C1 (stereo unspecified) | -5 | 1.1 | i | -8 | 117 | -1.4 | 145 |
| CNC(=O)Nc1ccc(Cn2cc(C(F)(F)F)ccc2=O)cc1 | 0 | 0.95 | i | 56 | 99 | / | 114 |
| CCOC(=O)c1cc(-c2ccccc2)sc1NC(=S)Nc1cc(C)ccn1 | -10 | / | / | / | 78 | -1.8 | / |
| CCCCCC(=O)NNC(=S)NC(C)=O | 1 | 1 | i | / | 103 | / | / |
| O=C(COC(=O)c1ccc(S(=O)(=O)N2CCCC2)cc1)NCc1cccs1 | -11 | 0.97 | i | 37 | 99 | / | 96 |
| O=C(O)CC(Cc1ccc(Br)cc1)C(=O)O (stereo unspecified) | -1 | / | / | / | 16 | -1.2 | / |
| CSc1cccc(NC(=O)CSc2ncccc2C(=O)Oc2cccc([N+](=O)[O-])c2)c1 | 7 | 0.95 | i | 16 | 106 | 0.1 | 84 |
| CN(C)c1cc(NC(=O)CNC(C)(C)CC(C)(C)C)c2ccccc2n1 | -8 | 0.75 | i | / | 102 | / | / |
| CC(=O)Nc1ccc(S(=O)(=O)Nc2cccc(NC(=O)c3ccco3)c2)cc1 | -4 | 0.94 | i | / | 100 | / | / |
| Cc1cccc(NC(=O)CN(C)S(=O)(=O)c2cccc3nsnc23)c1C | 4 | 1.1 | i | -79 | 78 | -1.8 | 84 |
| O=c1cc(/C=C/c2ccccc2)oc2ccccc12 | -7 | 0.88 | i | 19 | 106 | -1.8 | 106 |
| O=C(CN1C(=O)CSCC1=O)Nc1ccc2c(c1)OCO2 | -6 | 1.3 | i | / | 95 | -0.2 | / |
| CCC(C)NC(=O)N[C@@H](Cc1ccccc1)C(=O)O (stereo partly specified) | 10 | 0.98 | i | 43 | 108 | -1.1 | 164 |
| Cc1cc(SC(C)C(=O)Nc2ncc(Cl)cc2Cl)nc2ccccc12 (stereo unspecified) | 0 | 0.82 | i | -11 | 99 | -1.6 | 116 |

Brought forward from above: two compounds, then new ones.
| canonical_smiles | PKD1 kinase inh | HSV augment primary fold | HSV augment | Insulin prom inh | RGS16-Gao HTS | GALR2 ag | Insulin prom inh cell count |
| --- | --- | --- | --- | --- | --- | --- | --- |
| CCC(C)NC(=O)N[C@@H](Cc1ccccc1)C(=O)O (stereo partly specified) | 10 | 0.98 | i | 43 | 108 | -1.1 | 164 |
| Cc1cc(SC(C)C(=O)Nc2ncc(Cl)cc2Cl)nc2ccccc12 (stereo unspecified) | 0 | 0.82 | i | -11 | 99 | -1.6 | 116 |
| Cc1c([N+](=O)[O-])c([N+](=O)[O-])nn1CC(=O)NCCc1ccccc1 | -8 | 1.1 | i | -50 | 89 | 0.3 | 53 |
| CCOC(=O)c1ccc2c(c1)nc(SCC(=O)NC(C)C)n2CC | -4 | 0.91 | i | 32 | 104 | -1.4 | 109 |
| CC(C)CN(CC(C)C)c1nnc(N)s1 | -9 | / | / | 30 | 99 | -1.1 | 89 |
| COc1ccc(CC(=O)NNC(=O)c2cnccn2)cc1 | 3 | 0.96 | i | -30 | 135 | -2.1 | 65 |
| CCO[C@H]1OC(C(=O)O)=C[C@@H](C)[C@@H]1CCCO | 9 | 0.89 | i | / | 96 | / | / |
| O=S(=O)(NC1=NCCC1)c1ccc(F)cc1F | -3 | 0.91 | i | / | 104 | / | / |
| CC(=O)Nc1ccc(N/C=C/C(=O)c2ccc(C)o2)cc1 | -5 | 0.98 | i | 68 | 94 | 8.0 | 129 |
| COc1ccc(/C=C(\NC(=O)c2ccccc2)C(=O)N/N=C/c2ccncc2)cc1 | -10 | 0.87 | i | -20 | 70 | -1.4 | 66 |
| COC(=O)Cc1ccc2sc(-c3ccccc3)nc2c1 | 0 | 0.97 | i | 7 | 85 | -0.9 | 124 |
| CSc1cc(C)c(OCC(=O)Nc2ccc(NC(C)=O)cc2)c(C)c1 | -10 | 0.98 | i | / | 95 | / | / |
| CCOC(=O)C(NC(C)=O)(Nc1ccc(S(=O)(=O)Nc2cc(C)on2)cc1)C(F)(F)F (stereo unspecified) | -2 | 0.89 | i | 38 | 106 | -2.3 | 126 |
| Cc1ccc(-c2nc(NC(=O)CSc3cc(C)c4ccccc4n3)ns2)cc1 | -7 | 1.4 | i | -17 | 98 | -1.4 | 107 |

Sorted by heavy-atom count (highest first): some entries from above
| canonical_smiles | PKD1 kinase inh | HSV augment primary fold | HSV augment | Insulin prom inh | RGS16-Gao HTS | GALR2 ag | Insulin prom inh cell count |
| --- | --- | --- | --- | --- | --- | --- | --- |
| CCOC(=O)C(NC(C)=O)(Nc1ccc(S(=O)(=O)Nc2cc(C)on2)cc1)C(F)(F)F (stereo unspecified) | -2 | 0.89 | i | 38 | 106 | -2.3 | 126 |
| COc1ccc(/C=C(\NC(=O)c2ccccc2)C(=O)N/N=C/c2ccncc2)cc1 | -10 | 0.87 | i | -20 | 70 | -1.4 | 66 |
| Cc1ccc(-c2nc(NC(=O)CSc3cc(C)c4ccccc4n3)ns2)cc1 | -7 | 1.4 | i | -17 | 98 | -1.4 | 107 |
| Cc1cccc(NC(=O)CN(C)S(=O)(=O)c2cccc3nsnc23)c1C | 4 | 1.1 | i | -79 | 78 | -1.8 | 84 |
| Cc1cc(SC(C)C(=O)Nc2ncc(Cl)cc2Cl)nc2ccccc12 (stereo unspecified) | 0 | 0.82 | i | -11 | 99 | -1.6 | 116 |
| CCOC(=O)c1ccc2c(c1)nc(SCC(=O)NC(C)C)n2CC | -4 | 0.91 | i | 32 | 104 | -1.4 | 109 |
| CC(=O)Nc1ccc(N/C=C/C(=O)c2ccc(C)o2)cc1 | -5 | 0.98 | i | 68 | 94 | 8.0 | 129 |
| COC(=O)Cc1ccc2sc(-c3ccccc3)nc2c1 | 0 | 0.97 | i | 7 | 85 | -0.9 | 124 |
| O=c1cc(/C=C/c2ccccc2)oc2ccccc12 | -7 | 0.88 | i | 19 | 106 | -1.8 | 106 |
| CCO[C@H]1OC(C(=O)O)=C[C@@H](C)[C@@H]1CCCO | 9 | 0.89 | i | / | 96 | / | / |
| CC(C)CN(CC(C)C)c1nnc(N)s1 | -9 | / | / | 30 | 99 | -1.1 | 89 |

The list goes on:
| canonical_smiles | PKD1 kinase inh | HSV augment primary fold | HSV augment | Insulin prom inh | RGS16-Gao HTS | GALR2 ag | Insulin prom inh cell count |
| --- | --- | --- | --- | --- | --- | --- | --- |
| O=C(CSc1ncn[nH]1)Nc1ccccc1C(=O)O | 2 | 1 | i | 3 | 105 | -1.4 | 114 |
| Cc1ccc(N/C=C2\C(=O)N(c3ccc(F)cc3F)C(c3cccnc3)S2(=O)=O)cc1 (stereo unspecified) | / | 0.94 | i | / | 100 | / | / |
| CC(=O)Nc1c(O)nc(SCC(=O)Nc2nnc(SCc3ccccc3)s2)[nH]c1=O | 1 | 0.88 | i | 6 | 98 | / | 121 |
| CCCn1c(-c2ccc(F)cc2)cnc1SCC(=O)O | -1 | 1.2 | i | -14 | 102 | 0.4 | 140 |
| Cc1cccc(Nc2c([N+](=O)[O-])cc(C(=O)N3CC(=O)Nc4ccccc43)cc2[N+](=O)[O-])c1 | -3 | 0.86 | i | / | 100 | / | / |
| CCOc1ccc(C(=O)OCC(=O)c2c(N)n(C)c(=O)n(C)c2=O)cc1OCC | -4 | 0.98 | i | 0 | 107 | -1.2 | 96 |
| COc1ccc(C2CC(=O)c3cnc(NC(=O)c4ccccc4OC)nc3C2)c(OC)c1 (stereo unspecified) | 0 | 0.92 | i | -16 | 100 | -1.1 | 134 |
| N#CCCn1c(C2CCCCC2)nc2ccccc21 | -2 | 0.95 | i | 7 | 105 | -1.8 | 128 |
| COC(=O)c1cc(C(=O)Nc2ccc(S(N)(=O)=O)cc2)cc([N+](=O)[O-])c1 | -4 | 0.65 | i | / | 106 | / | / |
| COc1cc(NC(=O)c2cccs2)c(C(=O)OCC(=O)NC(C)c2ccccc2)cc1OC (stereo unspecified) | 4 | 0.87 | i | 70* | 96 | -2.6 | 48* |
| Nc1nc(-c2nc3ccccc3[nH]2)cs1 | -5 | 0.92 | i | 21 | 96 | -0.8 | 93 |
| O=C(Nc1ccccc1N1CCOCC1)c1cccnc1 | -3 | 0.95 | i | -8 | 103 | / | 113 |
| CC(=O)c1ccc(/C=C/c2nc3ccccc3n2C)o1 | / | 1.1 | i | / | 97 | / | / |
| Cn1c(N)c(C(=O)COc2ccc(C#N)cc2)c(=O)n(C)c1=O | -7 | 1 | i | / | 100 | / | / |
| CCOC(=O)c1c(C)[nH]c(C(=O)COC(=O)/C=C/c2ccc(OC(F)F)cc2)c1C | 14 | 0.86 | i | / | 106 | -1.0 | / |
| CCOc1ccc(NC(=O)N2CCC(c3ccc(C)cc3)C2)cc1 (stereo unspecified) | -4 | 0.88 | i | -28 | 101 | -2.3 | 39 |
| COC(=O)c1ccc(S(=O)(=O)NNC(=O)c2ccc(S(=O)(=O)N3CCCCC3)cc2)cc1 | 7 | 1 | i | -25 | 107 | -1.2 | 108 |
| Cc1cc(O)c(/C=N/OCc2ccc(Cl)cc2Cl)c(=O)o1 | -6 | 0.97 | i | / | 102 | / | / |
| Cc1c(C(=O)N2CCOCC2)sc2ncnc(N3CCc4ccccc4C3)c12 | -3 | 0.94 | i | / | 102 | -2.8 | / |
| O=C(NCCCn1ccnc1)c1cc(-c2ccc3c(c2)OCO3)on1 | 2 | 0.91 | i | 9 | 221 | 0.8 | 127 |
| S=C(NCc1ccco1)N1CCN(C(c2ccccc2)c2ccccc2)CC1 | 1 | 0.84 | i | -29 | 103 | -1.2 | 130 |
| O=C1NNC(c2ccccc2)=N/C1=C\c1ccco1 | / | 1.1 | i | / | 115 | / | / |
| Cc1cccc(N2CCN(C(=O)c3ccc4c(c3)OCCO4)CC2C)c1 (stereo unspecified) | -7 | 0.77 | i | -17 | 106 | / | 100 |
| CCN1CCN(C(=O)c2cc(-c3cccnc3)nc3ccc(Br)cc23)CC1 | 0 | 1.1 | i | 46 | 95 | -1.9 | 131 |
| Nc1nc(-c2ccc(Cl)cc2Cl)cn1N | -8 | 1 | i | 0 | 111 | -1.8 | 50 |
| Cc1cccc(C2CC(c3ccc(F)cc3)Nc3nc(N)nn32)c1 (stereo unspecified) | -27 | 0.86 | i | / | 104 | / | / |
| COc1cccc(/C=N/NC(=O)c2c(-c3ccccc3)noc2C)c1O | 12 | 0.76 | i | 25 | 79 | -1.9 | 74 |
| CCc1c(C)nc(SCC(=O)N2CCc3ccccc32)[nH]c1=O | -3 | 0.92 | i | -27 | 96 | -2.0 | 177 |
| CC1(C)CC(Nc2ccc(Nc3ccccc3)cc2)CC(C)(C)N1 | / | 0.66 | i | / | 102 | / | / |
| CCN(CC)CCOc1ccc(/C(=C(/Cl)c2ccccc2)c2ccccc2)cc1 | 10 | 0.6 | i | -280 | 85 | / | 84 |
| COc1ccccc1Oc1ccc(S(=O)(=O)Nc2cccnc2)cc1 | -3 | 1 | i | -290 | 106 | -2.3 | 31 |
| COCCNC(=O)CCCCCN1C(=O)CCC1=O | 3 | 0.6 | i | 0 | 88 | -1.5 | 111 |
| Cc1ccc2cc(CCNC(=O)c3cccs3)c(=O)[nH]c2c1C | -3 | / | / | -2 | 113 | -0.4 | 107 |
